Screening data as filed in PubChem.
MT1-MMP act inh – blockers of MT1-MMP proenzyme processing, primary screen, HT1080 RFP-PRO-GFP cells, GFP/RFP fluorescence; Matrix metalloproteinase-14 (Homo sapiens), P50281; GFP/RFP ratio fluorescence, overnight; percent of plate control window, DMSO zero; GFP/RFP ratio change, % at 20 µM; 0.061% of 360,000 active;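 active = GFP/RFP ratio change of at least 30% with cell ATP level not reduced by more than half and red fluorescence within 50% of control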; also: strong numbers were not always called active
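Material: RFP-PRO-GFP reporter HT1080 cells. Dosing: single-point 20 µM compound, 1% DMSO. Controls: DMSO and RFP-L50D-GFP cell wells. Timing: cells overnight before dosing, compound overnight, 37 °C, 5% CO2. Measure: GFP/RFP fluorescence ratio.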
CSC inhib – cancer stem cell viability inhibitors, primary screen, luminescence. inhibition, % at 7.5 µM. 1.1% of 300,000 active. cancer stem cell-like cells viability;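 active = mean at 75% or more and at least half the replicates too; inconclusive = mean and replicates disagree; tested in HMLE shEcad cells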;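 also: 0% = median of negative and 100% = median of positive control wells; the first replicate is given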
PABP FP inh – PABP poly(A) RNA binding inhibitors, primary screen, biochemical, fluorescence polarization, uHTS; inhibition, % at 35 µM; 1% of 290,000 active;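 active = 50% or more with normal probe brightness, or confirmed in later tests; inconclusive = above 50% with abnormal brightness, or retests that disagree; inactive = below 50% or failed in later tests; about a fifth of its hits are not listed in these tables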;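 also: calls also rest on retests at 20 µM and on dose response follow-up; controls were probe without protein and protein plus probe with vehicle; some compounds called inactive have numbers as strong as hits; many hits fall short of the cut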
Target sequence (P11940 whole entry, looked up): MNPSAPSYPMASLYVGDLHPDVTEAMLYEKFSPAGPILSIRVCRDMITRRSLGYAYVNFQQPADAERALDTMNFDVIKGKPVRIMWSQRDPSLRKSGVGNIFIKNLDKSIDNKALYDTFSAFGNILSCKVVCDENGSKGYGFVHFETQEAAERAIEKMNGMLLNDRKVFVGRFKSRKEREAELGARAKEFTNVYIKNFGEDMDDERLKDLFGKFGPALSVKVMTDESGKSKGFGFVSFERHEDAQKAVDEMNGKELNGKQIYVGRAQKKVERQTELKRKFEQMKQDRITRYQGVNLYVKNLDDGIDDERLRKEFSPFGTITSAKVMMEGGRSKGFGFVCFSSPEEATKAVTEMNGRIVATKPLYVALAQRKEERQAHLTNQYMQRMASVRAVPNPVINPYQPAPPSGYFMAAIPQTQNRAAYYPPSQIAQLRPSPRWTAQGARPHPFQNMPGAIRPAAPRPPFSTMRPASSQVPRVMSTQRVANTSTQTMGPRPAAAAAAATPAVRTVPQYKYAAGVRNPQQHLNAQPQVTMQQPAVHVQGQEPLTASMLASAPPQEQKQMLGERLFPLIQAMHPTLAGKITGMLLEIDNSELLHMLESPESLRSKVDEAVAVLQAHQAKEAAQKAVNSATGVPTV
UUG fidelity – modulators of yeast start codon fidelity, primary screen, whole organism, S. cerevisiae, single point, plate reader; S. cerevisiae UUG-firefly luciferase reporter, luminescence/redox ratio; activity score, % at 18.7 µM; 0.13% of 350,000 active; AID 602363, 2012;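 active = replicate mean at a twofold rise or more, about +100% in these data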;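 also: firefly luciferase made from a UUG start codon reports start codon fidelity; reporter light over untreated wells divided by growth signal over untreated wells; some hits fall short of that in this replicate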
Rce1 inhib – yeast Rce1p protease inhibitors, primary screen, biochemical, fluorescence, cell-free homogeneous; 0.27% of 290,000 active; calls only; yeast membranes, quenched prenylated peptide cleavage fluorescence; AID 2563, 2010;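 active = fall in fluorescence gain of 50% or more versus controls, with final raw signal at or below 3038400; inconclusive = same 50% fall but final raw signal above 3038400; inactive = fall in fluorescence gain under 50%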;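 also: plate controls were neutral control wells for no effect and wells lacking membranes for full effect; tested at 10 µM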
Target sequence (Q03530 whole entry, looked up): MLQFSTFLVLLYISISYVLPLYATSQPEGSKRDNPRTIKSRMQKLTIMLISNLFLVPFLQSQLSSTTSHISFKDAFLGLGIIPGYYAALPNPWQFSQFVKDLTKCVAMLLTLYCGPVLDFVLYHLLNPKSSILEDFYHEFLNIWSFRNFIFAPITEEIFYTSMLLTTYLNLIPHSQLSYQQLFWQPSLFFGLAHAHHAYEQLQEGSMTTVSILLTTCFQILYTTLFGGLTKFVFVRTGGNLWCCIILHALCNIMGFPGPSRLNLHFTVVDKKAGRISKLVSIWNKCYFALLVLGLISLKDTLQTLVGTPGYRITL
eIF4H FP inh – human eIF4H binding inhibitors, primary screen, translation initiation inhibitor project, biochemical, uHTS, fluorescence polarization; eIF4H fluorescence polarization binding assay; inhibition, % at 35 µM; 0.94% of 290,000 active;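 active = 50% or more with normal probe brightness, or confirmed in later tests; inconclusive = above 50% with abnormal brightness, or retests that disagree; inactive = below 50% or failed in later tests; about a fifth of its hits are not listed in these tables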;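 also: calls also rest on retests at 20 µM and on dose response follow-up; 0% = protein and probe with vehicle and 100% = probe without protein; strong numbers were not always called active; many hits fall short of the cut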
HIV Env fusion – inhibitors of HIV-1 Env-driven cell-cell fusion, primary screen, HeLa-JRFL effector, CEM21 target cells, luciferase; inhibition, % at 12.3 µM; 1.1% of 360,000 active; AID 651610, 2012;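 active = mean replicate inhibition score of at least 50 and every replicate individually at or above 50; inconclusive = only one of the two criteria met; inactive = mean below 50 and not all replicates reaching 50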;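 also: 0% = plate neutral controls and 100% = maraviroc near 300 nM; one replicate is shown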
eIF4H FP inh retest – second read-out of eIF4H FP inh, no call of its own (marks repeat the call); inhibition, %; compound at 20 µM; confirmation average;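 mean of two retest wells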
PABP FP inh retest – recorded beside PABP FP inh, whose call it bears; inhibition, %; compound at 20 µM; confirmation repeats;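 mean of two retest wells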
MT1-MMP act inh RFP – also measured in MT1-MMP act inh; calls as there; RFP signal change, %; measured here: RFP expression control read;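 0 = vehicle wells; hits needed this value within 50% of zero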
* = called active by the depositor; i = inactive; ? = inconclusive; . = not tested or not shown. Compounds as they come; 2.9% or so of the library scored in one or more.

SMILES	MT1-MMP act inh	MT1-MMP act inh RFP	CSC inhib	PABP FP inh	UUG fidelity	Rce1 inhib	eIF4H FP inh	HIV Env fusion	others
CCc1ccccc1OCC(=O)Nc1cc(S(=O)(=O)N2CCOCC2)ccc1N1CCCCC1	-15	-18	.	.	-3	.	.	13
O=C(Nc1ccc2c(c1)OCCO2)C1CCC1	0	1	-5	9	2	i	-1	-3
COc1ccccc1CNC(=O)C(=O)Nc1nccs1	2	3	-6	-6	.	i	-4	-1
Cc1cn([C@H]2C[C@H](O)[C@@H](CNS(=O)(=O)c3ccc(NS(=O)(=O)N(C)C)cc3)O2)c(=O)[nH]c1=O	1	3	.	.	-43	.	.	-3
COc1ccc(CCN(C)C(=O)c2cc(-c3ccccc3)nc3ccc(C)cc23)cc1OC	-3	-3	-19	7	8	i	-6	4
Cc1ccccc1OCC(=O)N/N=C1\SCC(=O)N1Cc1ccccc1	1	-2	-8	0	-1	i	-2	.
CSc1ccccc1NC(=O)c1cnc2n(c1=O)CCS2	-2	0	-4	-2	-27	i	5	-18
CCCCN1C(=O)C2NN=C(C(=O)OCC)C2C1=O (stereo not given)	-7	0	-17	6	-18	i	9	-29
COc1ccc(-c2cnc(SCC(=O)Nc3nc(C(C)(C)C)cs3)n2Cc2ccco2)cc1	-42	-36	2	-4	-9	i	9	.
Cc1csc(NC(=O)c2cc(-c3ccccc3)nc3ccccc23)n1	-20	-21	12	35	.	i	-15	0
CC(C)[C@H](NC(N)=O)C(=O)NCCc1ccc(Cl)cc1	2	6	1	-1	.	i	4	0
CCCCn1c(N)c(N(CC(C)C)C(=O)c2cccc(S(=O)(=O)N3CCN(C(C)=O)CC3)c2)c(=O)[nH]c1=O	5	4	-14	.	-15	i	.	-9

An excerpt from the list above, for reference:
SMILES	MT1-MMP act inh	MT1-MMP act inh RFP	CSC inhib	PABP FP inh	UUG fidelity	Rce1 inhib	eIF4H FP inh	HIV Env fusion	others
Cc1csc(NC(=O)c2cc(-c3ccccc3)nc3ccccc23)n1	-20	-21	12	35	.	i	-15	0
CC(C)[C@H](NC(N)=O)C(=O)NCCc1ccc(Cl)cc1	2	6	1	-1	.	i	4	0
CCCCn1c(N)c(N(CC(C)C)C(=O)c2cccc(S(=O)(=O)N3CCN(C(C)=O)CC3)c2)c(=O)[nH]c1=O	5	4	-14	.	-15	i	.	-9

Following part.
SMILES	MT1-MMP act inh	MT1-MMP act inh RFP	CSC inhib	PABP FP inh	UUG fidelity	Rce1 inhib	eIF4H FP inh	HIV Env fusion	others
O=C(NNC(=S)Nc1ccccc1)c1ccco1	-3	1	3	-9	-10	i	-6	-17
O=C(CSc1nnc(-c2ccco2)o1)NC1CC2CCC1C2 (stereo not given)	5	1	-4	-1	-15	i	4	.
C#CCOCCOCCOCCNc1nc(N2CCN(C(=O)[C@H]([C@@H](C)O)n3cc(CCCCN)nn3)CC2)nc(N2CCN(C(=O)[C@H](CCCCN)n3cc(CC(C)O)nn3)CC2)n1 (stereo not given in full)	2	2	-6	.	-28	.	.	6
COc1cccc(-c2cccc(NC(=O)C3CCN(Cc4ccon4)CC3)c2)c1	-5	2	1	2	-19	i	5	12
Cc1ccccc1C(c1ccccc1Cl)N(C)C (stereo not given)	0	1	.	.	-22	.	.	5
Cc1ccc(/C=N/n2c(COc3ccccc3)n[nH]c2=S)cc1	-1	0	-2	11	5	i	14	7
CCOc1ccc(NS(=O)(=O)c2cc(C(=O)N(CC)CC(=O)NCc3cccs3)ccc2C)cc1	-1	3	-13	.	29	i	.	.
Cc1cnc(C(=O)Nc2ccccc2-c2ccc(C)o2)cn1	-141	6	13	18	-18	i	9	.
CC(=O)Oc1ccc(C(=O)Nc2ccc(S(=O)(=O)N3CCOCC3)cc2)cc1	-1	4	-2	9	-16	i	11	4
CCCc1cc(C(=O)NCc2cccs2)no1	2	4	-3	4	-16	i	-4	-60
CCOC(=O)/C(C#N)=C/c1cc(C)n(-c2ccc(Br)cc2)c1C	.	.	-4	1	.	i	1	-73
CC(=O)NS(=O)(=O)c1ccc(NC(=S)NC(=O)c2ccco2)cc1	-2	4	3	-5	-22	i	-4	-23
Cn1c(SCC(=O)N2CCOCC2)nnc1-c1cccc(NC(=O)c2ccccc2F)c1	22	-1	-11	-8	7	i	-5	.
COc1ccccc1NC1=NC2(CCCC2)N=C(N)N1	3	5	-11	-5	-16	i	-4	.
CC(C(=O)OCC(=O)c1ccc(Br)cc1)N1C(=O)C2C3CCC(C3)C2C1=O (stereo not given)	-1	-1	.	4	-14	i	0	7
CCOC(=O)CCCCCC(=O)Nc1ccc2c(c1)C(=O)N([C@@H](C)CO)C[C@H](C)[C@H](CN(C)C(=O)Nc1ccc(F)cc1)OCCCC[C@H](C)O2	0	4	.	.	13	.	.	3
CCCCn1c(N)c(N(CC(C)C)C(=O)c2cc(-c3ccc(OC)c(OC)c3)nc3ccccc23)c(=O)[nH]c1=O	1	1	-5	.	.	i	.	-18
Cc1ccccc1NC(=S)/C(=C(\[O-])c1ccc(C)c([N+](=O)[O-])c1)[n+]1ccccc1	-2	1	-12	2	-29	i	-1	-6
Clc1ccc(N2CCN(c3ncnc4c3oc3ccccc34)CC2)cc1	-5	-17	13	0	-11	i	6	.
N#Cc1nc(-c2ccco2)oc1N1CCN(c2cccc(Cl)c2)CC1	2	2	10	-9	-10	i	-7	.
N#Cc1c(NC(=S)NC(=O)c2ccccc2)sc2c1CCN(CCc1ccccc1)C2	.	.	29	6	.	i	?	.
C=CCSc1nnc(NC(=O)COc2ccc3ccccc3c2)s1	2	1	-6	2	-12	i	2	.
O=C(O)c1ccc(CNCc2cc(Cl)ccc2O)cc1	2	8	-9	.	-4	.	.	-47
Cc1ccccc1CN1C(=O)[C@H]2Cc3c([nH]c4ccccc34)C(C)(C)N2C1=O	5	-11	4	.	4	i	.	-8
COc1ccc(N=Nc2[nH]c3ccc(C)cc3c2O)cc1	5	1	5	1	.	i	-3	3
CC(Sc1ccccc1)C(=O)Nc1ccccc1C(=O)N1CCOCC1 (stereo not given)	-4	1	-10	7	-5	i	-7	.
COc1ccc(S(=O)(=O)N2CCCCCC2)cc1C(=O)N(C)CC(=O)Nc1ccccc1Cl	4	-1	2	.	-20	i	.	.
CCOC(=O)N1CCC(NC(=O)C(NS(=O)(=O)c2ccc3c(c2)CCN3C(=O)CC)C(C)C)CC1 (stereo not given)	3	1	4	-6	.	i	-8	-1
O=C(O)CC1S/C(=N/N=C/C2CC=CCC2)NC1=O (stereo not given)	-2	1	-4	7	.	i	10	-6
CC(C)(C)C1=Nn2c(nnc2-c2ccco2)SC1	-2	3	-16	9	-11	i	-7	-40
CC/C(=C\C(=O)c1cccnc1)Nc1ccc(C)c(C)c1	-4	4	14	-4	-15	i	-7	.
O=C1NC(=O)c2cc(NC(=O)C3COc4ccccc4O3)ccc21 (stereo not given)	1	2	0	-3	-4	i	-2	45
O=C(NCCCCCCNC(=O)c1cncc(O)c1)c1cncc(O)c1	2	5	-5	25	.	i	0	-1
C=CCn1c(C)cc(C(=O)CSc2nc(N)cc(N)n2)c1C	-1	-4	-10	0	.	i	2	-1
COc1cc(Cl)c(C)cc1NC(=O)COc1ccc(C)nc1[N+](=O)[O-]	-2	-9	.	.	1	.	.	-11
C=CCOc1nc2c(c(=O)n(C)c(=O)n2C)n1Cc1c(Cl)cccc1Cl	7	-1	-1	7	2	i	-5	.
COc1ccc(OC)c(C(=O)NC(CC(N)=O)c2ccc(N3CCN(c4ccccc4)CC3)c([N+](=O)[O-])c2)c1 (stereo not given)	7	3	-6	16	-4	i	-1	2
O=C(c1cccc(S(=O)(=O)NCc2ccccc2)c1)N1CCN(c2cccc(C(F)(F)F)c2)CC1	-5	-17	41	55*	-3	i	16	61*	eIF4H FP inh retest=33;PABP FP inh retest=56*
O=C(Cc1c(F)cccc1Cl)NC1=NCCS1	0	-1	-4	72	.	i	-3	4	eIF4H FP inh retest=-9;PABP FP inh retest=4
COC(=O)c1ccc(CNC(=O)c2ccc3oc(C(C)C)nc3c2)cc1	1	-3	0	-10	-17	i	-4	-83
Cc1nn(CC(=O)NNC(=S)NCC2CCCO2)c(C)c1Br (stereo not given)	-1	-1	-8	-2	-9	i	4	-13
O=C(Nc1ccccc1)Nc1nc(-c2ccccc2)cs1	2	-11	-12	0	.	i	-7	-39
CCOc1ccccc1NC(=O)C1CCN(C(=O)NCc2ccccc2)CC1	-3	0	-7	-4	-9	i	-5	-15
COc1ccc(N2CCN(c3ncnc4c3[nH]c3ccccc34)CC2)cc1	3	-31	9	4	.	i	-3	.
CC(C)Cn1cnc2sc3c(c2c1=N)CCCC3	-1	0	-13	3	.	i	0	.
CCN(C(=O)COC(=O)CCCN1C(=O)c2cccc3cccc(c23)C1=O)C1CCS(=O)(=O)C1 (stereo not given)	1	3	-8	.	-3	i	.	-6
Cc1cc(CNC(=O)C2CCC(=O)N(Cc3ccccc3F)C2)on1 (stereo not given)	0	2	0	6	-3	i	2	1
COc1ccc(S(=O)(=O)N2CCN(C(=O)C3CCC3)CC2)cc1	1	0	4	.	-9	i	.	.
COc1ccccc1-c1cc(C(=O)NCCCn2ccnc2)no1	5	1	-1	-9	-16	i	3	0
CSCc1ccc(C(=O)Nc2cc(C)cc(C)c2)cc1	0	1	-4	-14	.	i	-6	-6
CCOC(=O)c1c(-c2ccccc2)oc2ccc(OC(C)C(=O)O)cc12 (stereo not given)	1	3	12	4	-5	i	-14	-13
CCOC(=O)C1=C(CC)OC(N)=C(C#N)C1c1ccc(OC)c(OC)c1OC (stereo not given)	-1	4	-3	2	-1	i	-2	15
CC(C)C(NC(=O)c1ccc(F)cc1)C(=O)NC1(C)CCS(=O)(=O)C1 (stereo not given)	-2	-1	.	.	-10	.	.	-2
CCCCNC(=O)c1sc(=S)n2c1[nH]c(=O)c1ccc(C(=O)NCCc3ccc(OC)c(OC)c3)cc12	-2	1	-2	62	-11	i	-8	.	eIF4H FP inh retest=-5;PABP FP inh retest=8
CCC(=O)c1ccc(Oc2ccc(C(=O)c3ccc(C)cc3)cc2[N+](=O)[O-])cc1	-6	-14	3	-12	.	i	-1	31
Cc1cccc(/C=C/c2onc(C)c2[N+](=O)[O-])n1	.	.	51	.	.	i	.	-14
CN(CC(=O)Nc1c(Cl)cccc1Cl)C(=O)C1=COCCO1	2	2	-3	.	-7	i	.	-107
O=S(=O)(NCC1(N2CCOCC2)CCCCC1)c1ccc(Cl)cc1C(F)(F)F	-4	-4	.	-10	0	i	-14	-133
COc1ccc(Cl)cc1NC(=O)CN1C(=O)C(=O)N(C2CCCC2)C1=O	-2	5	.	.	-14	.	.	-9
CCC(NC(=O)NNC(=O)c1ccncc1)(C(F)(F)F)C(F)(F)F	3	4	2	-8	-7	i	0	3
O=Cc1cccn1-c1cccc([N+](=O)[O-])c1	-2	2	-3	12	-10	i	4	-5
C[C@H](NC(=O)c1ncn(C)c1C(=O)N[C@@H](C)c1ccccc1)c1ccccc1	-1	-1	3	.	4	.	.	19
Cc1cc(Nc2ccccc2)c2c([N+](=O)[O-])ccc(C)c2n1	16	20	8	-4	-1	i	0	23
